GALR2 agonist: agonists of human galanin receptor 2 (GALR2). GALR2-expressing cells, agonist activation read-out. activation, %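 (tested at 5 µM)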. 140,000 tested, 0.48% active;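 active means above mean plus 3 SD of all compounds, about 5% in these data, not always enough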;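 further: 0% = vehicle buffer wells and 100% = reference agonist at full effect; tested in CHO reporter cells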
Target sequence (O43603 whole entry, looked up): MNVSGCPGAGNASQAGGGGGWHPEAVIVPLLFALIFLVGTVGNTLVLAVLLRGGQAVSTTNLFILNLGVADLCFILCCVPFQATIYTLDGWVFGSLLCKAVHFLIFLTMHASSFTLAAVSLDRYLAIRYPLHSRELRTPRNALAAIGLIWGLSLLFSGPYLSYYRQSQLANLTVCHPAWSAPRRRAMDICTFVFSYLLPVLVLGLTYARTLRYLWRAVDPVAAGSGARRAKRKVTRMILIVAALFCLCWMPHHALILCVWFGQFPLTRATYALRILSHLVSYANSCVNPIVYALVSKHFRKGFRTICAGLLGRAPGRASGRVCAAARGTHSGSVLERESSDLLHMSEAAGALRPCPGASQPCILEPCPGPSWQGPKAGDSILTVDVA
RGS16-Gao HTS: regulators of human RGS16-Galphao interaction; O15492+P09471; bead-based flow cytometry RGS16-Galphao binding, fluorescence; actives lie on both sides; binding response (% of control), % at 10 µM; 220,000 tested, 0.38% active; AID 1441;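 active means below 25% or above 175%, edge rows of some plates excepted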;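 further: Galphao activated by GDP with aluminum fluoride before binding; 100% = wells without compound and 0% = beads without RGS; some results beyond the cut were filed as inactive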
Target sequence (O15492 whole entry, looked up): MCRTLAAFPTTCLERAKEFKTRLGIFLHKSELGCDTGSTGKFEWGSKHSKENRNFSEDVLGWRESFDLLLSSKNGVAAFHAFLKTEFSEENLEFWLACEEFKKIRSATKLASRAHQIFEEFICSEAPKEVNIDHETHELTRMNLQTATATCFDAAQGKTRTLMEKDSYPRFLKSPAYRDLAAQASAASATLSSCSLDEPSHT
Target sequence (P09471 whole entry, looked up): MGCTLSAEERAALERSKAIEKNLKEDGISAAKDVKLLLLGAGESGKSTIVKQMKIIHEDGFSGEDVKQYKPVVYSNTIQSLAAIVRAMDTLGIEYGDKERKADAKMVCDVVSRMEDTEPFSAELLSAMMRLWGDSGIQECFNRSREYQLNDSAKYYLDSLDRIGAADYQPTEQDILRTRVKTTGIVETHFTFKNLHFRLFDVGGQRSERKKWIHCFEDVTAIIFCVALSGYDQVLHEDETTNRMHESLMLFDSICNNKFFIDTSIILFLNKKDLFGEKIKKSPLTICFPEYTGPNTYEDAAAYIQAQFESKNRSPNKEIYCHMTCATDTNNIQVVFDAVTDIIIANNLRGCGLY
HSV replic up: increases HSV replication in cells; 220,000 tested, 0.005% active; maximum fold increase; HSV replication augmentation in cells, fold increase;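 active means peak rise of 1.5-fold or more in the series; tested in PC3 cells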;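 further: first round at 10 µM; read as green reporter fluorescence; hits show the peak of a series up to 25 µM; 1 = signal of infected wells without compound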
INS promoter inh: TRM-6 insulin promoter activity inhibition; TRM-6 cells (human fetal islet line), insulin promoter-eGFP reporter, imaging; reporter expression induced with tamoxifen; inhibition, % at 2 µM; 130,000 tested, 0.9% active; AID 1273;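 active means inhibition above the mean plus 3 SD, with well images judged a real hit on visual review, cut at about 60% in these data, passing the limit was not always enough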
PKD1 kinase inh: PKD1 (human) kinase inhibition; inhibition, %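 (about 10 µM by stock and volumes)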; 200,000 tested, 0.056% active; PKD1 kinase fluorescence polarization assay; Q15139;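 active means inhibition of 50% or more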;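 further: controls were vehicle for no effect and a reference inhibitor for full effect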
INS promoter inh cell count: further read-out of INS promoter inh, marked with its call; normalized cell count, %; measured here: cell count, toxicity; reference of the scale not given here;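 cells exposed to compound for 48 h; stained nuclei by imaging scaled within each plate; lower means fewer cells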
HSV replic up primary fold: also measured in HSV replic up; calls as there; fold increase; compound at 10 µM; measured here: primary screen fold increase 10 uM; tested in PC3 cells;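 GFP signal in the first replicate; 1 = infected wells without compound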
* = called active by the depositor; i = inactive; . = no result given.

Letter code – A = GALR2 agonist; B = RGS16-Gao HTS; C = HSV replic up; D = HSV replic up primary fold; E = INS promoter inh; F = INS promoter inh cell count; G = PKD1 kinase inh
COc1ccccc1CNS(=O)(=O)c1ccc2c(c1)oc(=O)n2C
  A = . | B = 103 | C = i | D = 0.95 | E = . | F = . | G = -11
CC(=O)c1cccc(NC(=O)c2ccc(Br)o2)c1
  A = -1.2 | B = 115 | C = i | D = 0.96 | E = 15 | F = 98 | G = 6
CC(Sc1nnc2ccccn12)C(=O)Nc1ncc(Cl)cc1Cl (stereo not given)
  A = -0.6 | B = 101 | C = . | D = . | E = -35 | F = 156 | G = -4
O=S(=O)(c1ccccc1)c1nc(-c2cccs2)oc1NCC1CCCO1 (stereo not given)
  A = -0.5 | B = 101 | C = i | D = 1 | E = 7 | F = 133 | G = 1
COc1ccccc1NC(=S)NC1CC2CCC1C2 (stereo not given)
  A = . | B = 92 | C = i | D = 0.95 | E = . | F = . | G = .
Cc1cccc(-c2nc3ccccc3c(=O)n2NC(=S)N(C)C)c1
  A = -1.3 | B = 77 | C = i | D = 0.96 | E = . | F = . | G = -1
CCN(CC)S(=O)(=O)c1ccc(S(=O)(=O)N2CCCC2)cc1
  A = . | B = 93 | C = i | D = 0.95 | E = -100 | F = 165 | G = -3
CCOC(=O)c1[nH]c(C)c(C(=O)N2CCN(c3ccc(F)cc3)CC2)c1C
  A = -1.2 | B = 103 | C = i | D = 0.9 | E = 67 | F = 112 | G = -3
CN(C(=O)n1cnc2ccccc21)c1ccccc1
  A = -0.9 | B = 73 | C = i | D = 1.1 | E = . | F = . | G = 1
CCC/S(C)=N/S(=O)(=O)c1ccc(C)cc1 (stereo not given)
  A = 0.2 | B = 104 | C = i | D = 0.98 | E = -93 | F = 34 | G = 9
COc1cccc(/C=N/NC(=O)C(C)n2nnc3ccccc32)c1 (stereo not given)
  A = 0.3 | B = 113 | C = . | D = . | E = 0 | F = 131 | G = -11
Cc1cnc(C)c(N2CCN(Cc3nc(-c4cccc(F)c4F)oc3C)CC2)n1
  A = . | B = 127 | C = i | D = 1.1 | E = 14 | F = 98 | G = 5
COc1cc(OC)c2cc[nH]c2c1
  A = -0.6 | B = 99 | C = i | D = 0.89 | E = -6 | F = 96 | G = 6
O=C(COc1ccccc1)N1CCN(c2ccc([N+](=O)[O-])c(N3CCCCC3)c2)CC1
  A = -3.1 | B = 103 | C = i | D = 0.94 | E = . | F = . | G = -3
CC(=O)OCC1OC(n2ncc(=O)n(Cc3ccccc3)c2=O)C(OC(C)=O)C1OC(C)=O (stereo not given)
  A = . | B = 104 | C = i | D = 0.95 | E = 28 | F = 65 | G = -2
CSc1ccc(/C=N/Nc2ccc(Cl)c(C(=O)O)c2)cc1
  A = . | B = 91 | C = i | D = 0.98 | E = -156 | F = 71 | G = 8
CN(Cc1ccccc1)C(=S)NC(=O)c1ccc(-c2ccccc2)cc1
  A = 1.3 | B = 100 | C = i | D = 1.1 | E = . | F = . | G = 6
Cc1c(C(=O)NN2CCN(C)CC2)cccc1[N+](=O)[O-]
  A = -1.7 | B = 101 | C = i | D = 1.2 | E = -16 | F = 113 | G = -13
O=C(CCn1nc(-c2ccc(Cl)cc2)ccc1=O)NCc1ccccn1
  A = -0.9 | B = 101 | C = i | D = 0.99 | E = -46 | F = 107 | G = -4
CN(C)c1ccc(NC(=O)CN2CCN(S(=O)(=O)c3cc(Cl)ccc3Cl)CC2)cc1
  A = -0.9 | B = 104 | C = i | D = 0.96 | E = -1 | F = 125 | G = -15
O=C(NC1CCCCC1)Sc1ccc(Cl)cc1
  A = -2.4 | B = 99 | C = i | D = 0.91 | E = 21 | F = 100 | G = -10
N#CC(c1ccc(O)cc1)N1CCCCC1 (stereo not given)
  A = -0.8 | B = 102 | C = i | D = 0.76 | E = 15 | F = 109 | G = 0
CCOCCCNC(=O)Cc1ccc(Br)cc1
  A = -0.6 | B = 111 | C = i | D = 0.95 | E = -67 | F = 54 | G = -5
Cc1nnc(SCC(=O)N2c3ccccc3Sc3ccccc32)n1N
  A = -2.2 | B = 102 | C = i | D = 0.87 | E = -118 | F = 157 | G = 3
CC(=O)c1cccc(NS(=O)(=O)N(C)C)c1
  A = -1.8 | B = 80 | C = i | D = 0.95 | E = -118 | F = 92 | G = -2

Rewritten bar-delimited: part of the list above
Compound | GALR2 agonist | RGS16-Gao HTS | HSV replic up | HSV replic up primary fold | INS promoter inh | INS promoter inh cell count | PKD1 kinase inh
COc1ccccc1NC(=S)NC1CC2CCC1C2 (stereo not given) | . | 92 | i | 0.95 | . | . | .
Cc1cccc(-c2nc3ccccc3c(=O)n2NC(=S)N(C)C)c1 | -1.3 | 77 | i | 0.96 | . | . | -1
CCN(CC)S(=O)(=O)c1ccc(S(=O)(=O)N2CCCC2)cc1 | . | 93 | i | 0.95 | -100 | 165 | -3
CCOC(=O)c1[nH]c(C)c(C(=O)N2CCN(c3ccc(F)cc3)CC2)c1C | -1.2 | 103 | i | 0.9 | 67 | 112 | -3
CN(C(=O)n1cnc2ccccc21)c1ccccc1 | -0.9 | 73 | i | 1.1 | . | . | 1
CCC/S(C)=N/S(=O)(=O)c1ccc(C)cc1 (stereo not given) | 0.2 | 104 | i | 0.98 | -93 | 34 | 9

(listing goes on)
Letter code – A = GALR2 agonist; B = RGS16-Gao HTS; C = HSV replic up; D = HSV replic up primary fold; E = INS promoter inh; F = INS promoter inh cell count; G = PKD1 kinase inh
Cc1cc(Nc2ccccc2)n(CCC#N)n1
  A = -1.2 | B = 104 | C = i | D = 1 | E = -23 | F = 66 | G = 1
COc1cc(C(=O)N(Cc2cccnc2)Cc2cc3cc4c(cc3[nH]c2=O)OCCO4)cc(OC)c1OC
  A = -1.7 | B = 104 | C = i | D = 1.1 | E = -43 | F = 50 | G = -13
Cc1ccc(C2C=C(c3ccccc3OC(F)F)Nc3ncnn32)cc1 (stereo not given)
  A = 1.3 | B = 98 | C = . | D = . | E = 0 | F = 99 | G = -3
COc1cc(OC)c(C(=O)Nc2cccc(C(C)=O)c2)cc1OC
  A = -0.8 | B = 110 | C = i | D = 0.89 | E = -23 | F = 119 | G = -6
O=C(NCc1ccccc1Cl)c1csc2c1CCCCC2
  A = -5.1 | B = 103 | C = i | D = 1.1 | E = 12 | F = 90 | G = -6
O=C(c1cc(Sc2ccc(Cl)cc2)nc2ccccc12)N1CCN(c2ccccn2)CC1
  A = . | B = 100 | C = i | D = 0.97 | E = . | F = . | G = 0
CC1(C)CC(=O)C2=C(C1)OC1=C(C2)C(=O)CC(C)(C)C1
  A = -0.3 | B = 112 | C = i | D = 0.94 | E = 20 | F = 90 | G = -13
O=C(NCCOCCOCCNC(=O)c1ccccc1)c1ccccc1
  A = . | B = 98 | C = i | D = 0.95 | E = . | F = . | G = -3
Nc1nc(NC(=O)C(Cl)(Cl)Cl)nn1-c1ccccc1
  A = 1.1 | B = 99 | C = i | D = 0.91 | E = 45 | F = 94 | G = -5
COc1cccc(NC(=O)COC(=O)CCS(=O)(=O)c2ccc(C)cc2)c1
  A = . | B = 100 | C = i | D = 1.2 | E = -11 | F = 148 | G = 0
O=C(NCc1cccnc1)c1cn(CCc2ccccc2)nn1
  A = -4.8 | B = 98 | C = i | D = 0.97 | E = 13 | F = 81 | G = -9
Cn1c(SCC(=O)NCc2ccc3c(c2)OCO3)nnc1-c1c[nH]c2ccccc12
  A = -1.3 | B = 97 | C = i | D = 0.87 | E = -24 | F = 122 | G = -1
O=C1CCc2cc(S(=O)(=O)N3CCC(C(=O)NCc4ccccn4)CC3)ccc2N1
  A = -0.1 | B = 104 | C = . | D = . | E = . | F = . | G = -5
COc1ccc(-c2nc(C)sc2CC(=O)O)cc1OC
  A = . | B = 98 | C = i | D = 0.77 | E = . | F = . | G = 4
Cc1cc(=O)oc2c(CN(CC(C)C)CC(C)C)c(O)ccc12
  A = -0.7 | B = 249 | C = i | D = 0.87 | E = 50 | F = 125 | G = -3
CCCC(=O)NC(c1ccccc1OC)c1ccc2cccnc2c1O (stereo not given)
  A = . | B = 97 | C = i | D = 0.68 | E = 21 | F = 49 | G = 0
Cc1cc(S(=O)(=O)NCCc2ccccc2)c(C)s1
  A = -3.5 | B = 93 | C = i | D = 0.84 | E = . | F = . | G = -2
CCn1c(=O)c2ccccc2n2c(SCC(=O)N3CCCc4ccccc43)nnc12
  A = -1.0 | B = 112 | C = i | D = 1 | E = 67 | F = 142 | G = 0
CCn1cc(/C=N\NC(=O)c2c[nH]c3ccccc23)c(C)n1
  A = -1.7 | B = 82 | C = i | D = 1.1 | E = . | F = . | G = -16
Cc1ccccc1N(CC(=O)N1CCOCC1)S(C)(=O)=O
  A = . | B = 102 | C = i | D = 0.99 | E = . | F = . | G = -3
Cc1c(C(=O)Nc2ccc(Cl)cc2)c2ccccn2c1C(=O)c1ccccc1
  A = -2.4 | B = 97 | C = i | D = 0.95 | E = . | F = . | G = 6
O=C(c1cccc(C(F)(F)F)c1)C1CCCN(C(=O)CCc2cnccn2)C1 (stereo not given)
  A = . | B = 99 | C = i | D = 1.1 | E = . | F = . | G = -1
Cn1c(N)c(C(=O)COC(=O)CCCc2nc3ccccc3s2)c(=O)n(C)c1=O
  A = . | B = 112 | C = i | D = 0.9 | E = 0 | F = 57 | G = -2
O=S(=O)(Nc1ccc(Cl)nn1)c1ccccc1
  A = . | B = 108 | C = i | D = 0.91 | E = . | F = . | G = 5
CCCCC(C(=O)OCC)C(N)Cc1ccc(F)cc1 (stereo not given)
  A = . | B = 101 | C = i | D = 0.84 | E = -59 | F = 114 | G = -7
CCN=C1S/C(=C\c2ccc(OCC)c(OC)c2)C(=O)N1CC
  A = 2.1 | B = 99 | C = i | D = 0.93 | E = -42 | F = 69 | G = -3
COC(=O)c1ccc(C(C(=O)NC2CCCCC2)N(Cc2ccccc2)C(=O)Cc2cccs2)cc1 (stereo not given)
  A = -0.3 | B = 29 | C = i | D = 0.99 | E = -48 | F = 68 | G = -4
Cn1c(SCc2c(Cl)cccc2Cl)nnc1-c1ccc2nonc2c1
  A = . | B = 96 | C = i | D = 1 | E = . | F = . | G = .
CCOC(=O)c1[nH]c(C)c(C(=O)N2CCN(c3ccccc3)CC2)c1C
  A = -1.4 | B = 99 | C = i | D = 0.74 | E = . | F = . | G = -3
Cc1c(-c2ccccc2)nc2ccccc2c1C(=O)O
  A = -2.7 | B = 101 | C = i | D = 0.91 | E = 0 | F = 94 | G = -13
CCOC(=O)C(CC)Sc1nc2c(c(=O)[nH]c(=O)n2C)n1C/C=C(/C)Cl (stereo not given)
  A = 2.5 | B = 96 | C = i | D = 0.94 | E = -68 | F = 67 | G = -9
CCN(C(=O)C1CCN(S(=O)(=O)c2ccc3c(c2)oc(=O)n3C)CC1)c1cccc(C)c1
  A = -1.4 | B = 96 | C = i | D = 0.85 | E = . | F = . | G = 5
O=C(Nc1ccc(OC(F)(F)F)cc1)Oc1ccccc1N1CCOCC1
  A = . | B = 104 | C = i | D = 0.93 | E = . | F = . | G = .
CN(C)c1cccc(C(=O)OCc2cc(=O)oc3cc(O)ccc23)c1
  A = -1.2 | B = 95 | C = i | D = 0.8 | E = 13 | F = 91 | G = 4
O=C(CN1C(=O)COc2ccc(Cl)cc21)N1CCc2ccccc21
  A = -1.2 | B = 72 | C = i | D = 1.3 | E = -18 | F = 90 | G = -9
Clc1ccc(SCCn2ccnc2)cc1
  A = -0.6 | B = 105 | C = i | D = 0.96 | E = 41 | F = 113 | G = -16
Cc1cc(C)c(C#N)c(SCc2ccccc2C(=O)O)n1
  A = -0.3 | B = 104 | C = i | D = 0.92 | E = . | F = . | G = -17
Cc1ccc(C(=O)OCCN2CCN(c3ncc(C(F)(F)F)cc3Cl)CC2)cc1
  A = -3.0 | B = 101 | C = i | D = 0.95 | E = 15 | F = 144 | G = -5
CN(CC(=O)Nc1cccc2c1CCCC2)S(=O)(=O)c1ccc(Cl)cc1
  A = -3.8 | B = 94 | C = i | D = 0.96 | E = . | F = . | G = -10
COc1cc(NC(=S)NNC(=O)C(C)(C)O)cc(OC)c1
  A = . | B = 100 | C = i | D = 1 | E = -16 | F = 96 | G = 0
COC(=O)COc1ccc(S(=O)(=O)Nc2cc([N+](=O)[O-])ccc2C)cc1
  A = . | B = 103 | C = i | D = 0.75 | E = . | F = . | G = -1
CCOC(=O)[C@@H]1C(c2c(OC)cc(OC)cc2OC)=NO[C@@H]1C(=O)OCC
  A = -0.7 | B = 60 | C = i | D = 0.97 | E = 11 | F = 127 | G = -14
CC(C)N1C/C(=C/c2ccsc2)C(=O)/C(=C/c2ccsc2)C1
  A = -0.1 | B = 102 | C = i | D = 0.84 | E = . | F = . | G = 3
Cn1c(N/N=C/c2cccs2)nc2c1c(=O)n(Cc1ccccc1)c(=O)n2C
  A = 0.5 | B = 111 | C = i | D = 0.92 | E = -10 | F = 98 | G = -11
Oc1ccc(-c2csc(Nc3ncccn3)n2)c(O)c1
  A = . | B = 103 | C = i | D = 0.84 | E = . | F = . | G = -1

Screening results: PubChem, several laboratories
